# Screens (PubChem)
# Menin MLL FP FL: displaces fluorescein MLL peptide from human menin. AID 1766. FP activity change, % at 61.4 µM. Fluorescence polarization, fluorescein-MLL peptide displacement from menin. 290,000 tested, under 10 active; inconclusive = falling polarisation curve, or a change in total fluorescence; inactive = total fluorescence flat and polarisation flat or rising; no compound was filed as active; the % refers to the polarisation; negative = inhibition;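 further: % of control where 0% means no effect; inhibitors lower the polarisation; unlabelled MLL peptide was the positive control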
# Sfp PPTase inh: inhibitors of Bacillus subtilis Sfp phosphopantetheinyl transferase | Q9F4F7 | Biochemical Sfp PPTase activity, qHTS | Potency, µM, without a hit: max response, negative = inhibition, hits mostly inhibitors | actives 3.5% (n = 310,000) | AID 1490; active means well fitted inhibition curve with a large enough effect; inconclusive means small, poorly fitted or top-dose-only effect, or another doubt; inactive means no such curve, though single readings can be large or run the other way;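 further: the enzyme is Sfp with the accession as filed and its product quenches rhodamine fluorescence; potency means the concentration at half of the fitted maximal effect; 0% = enzyme reaction without inhibitor and -100% = no enzyme wells; top concentration of the series not given in the record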
#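 Reaction rates are the 30-min fluorescence difference (ex 525, em 598 nm) in wells containing 15 nM Sfp, 5 uM rhodamine-CoA and 12.5 uM BHQ-2-YbbR at pH 7.6 with 10 mM MgCl2.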
# TRPML1 inh: human mucolipin-1 channel inhibition | Q9GZU1 | TRPML1-inducible cells, Ca2+ dye fluorescence, FDSS; hits give low values; inhibition of EC80 agonist-evoked calcium signal | activity change, negative = inhibition, % (concentration not given with the values) | actives 0.02% (n = 390,000) | AID 624415; in the data active means activity change below about -50%; inconclusive means about -30% to -50%; inactive means above about -30%;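 further: stimulus is agonist 54-4 at its EC80 concentration; on the % scale 0 is the no-effect control and ±100 the full control effect; compound concentration not given in the record; the text of the record puts the active cut at -80%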
# Target sequence (Q9GZU1 whole entry, looked up): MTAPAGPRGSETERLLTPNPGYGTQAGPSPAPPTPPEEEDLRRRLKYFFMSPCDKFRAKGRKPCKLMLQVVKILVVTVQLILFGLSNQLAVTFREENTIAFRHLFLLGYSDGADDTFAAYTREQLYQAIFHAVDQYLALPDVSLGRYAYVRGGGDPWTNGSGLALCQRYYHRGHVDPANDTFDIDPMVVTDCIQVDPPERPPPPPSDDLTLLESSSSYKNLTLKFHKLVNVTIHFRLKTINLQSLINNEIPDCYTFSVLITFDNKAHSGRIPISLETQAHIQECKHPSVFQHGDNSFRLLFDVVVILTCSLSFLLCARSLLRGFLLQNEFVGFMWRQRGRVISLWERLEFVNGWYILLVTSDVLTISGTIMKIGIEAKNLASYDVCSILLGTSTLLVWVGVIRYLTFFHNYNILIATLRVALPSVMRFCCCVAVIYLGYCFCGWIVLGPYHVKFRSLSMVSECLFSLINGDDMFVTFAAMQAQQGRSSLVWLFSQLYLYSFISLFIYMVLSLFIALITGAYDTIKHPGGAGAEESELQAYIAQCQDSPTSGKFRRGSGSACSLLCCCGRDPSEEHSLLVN
#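 Calcium fluorescence in TRPML1-DL cells induced overnight with Tet: a 110 s read after compound pin addition, then a 110 s antagonist read after challenge with 54-4 at 4 uM final (EC80).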
# TRPML1 ag: agonists of human TRPML1 channel | actives 0.12% (n = 410,000) | activation, % (no concentration beside the values) | Q9GZU1 | TRPML1-expressing cells, Ca2+ dye fluorescence, FDSS; host cell line not named in the record; reference of the full effect not given here; in the data active = activation above about 50%; inconclusive = about 30% to 50%; inactive = below about 30%; further: 0% is about no effect; the text of the record puts the active cut at 80%
#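 Calcium fluorescence on an FDSS kinetic reader gave the read-out. Tet-induced TRPML1-DL cells were plated overnight, dye-loaded (Ca8 with quencher, 45-90 min, room temperature, dark), then read 110 s after compound addition, and again 110 s after 4uM final 54-4 (EC80).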
# PINK1 modulator: PINK1 expression modulation; PINK1 immunofluorescence, high-content cytometry, 24 h; Potency, µM (highest dose often 76.6 µM), for the others: at the highest dose activation (PINK1 increase), actives largely listed as activators; actives 0.2% (n = 410,000); AID 624263; active = well fitted activation curve with a large enough effect; inconclusive = small, poorly fitted or top-dose-only effect; inactive = flat fitted curve, though single readings scatter; cell line not stated here;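 further: potency means the concentration at half of the fitted maximal effect; % of control where 0% means no effect; nearly all actives have a fitted effect of over 65% in size; a mitochondrial uncoupler was the plate control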
#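 PINK1 protein, normally rapidly degraded, was detected by immunofluorescence after 24 hour compound treatment of a stable cell line. Titration data (5 concentrations) came from laser-scanning cytometry, with CCCP-treated wells as controls.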
# ClpP mod: qHTS Assay for Activators of ClpP | ATP-dependent Clp protease proteolytic subunit (Bacillus subtilis (strain 168)), P80244 | purified B. subtilis ClpP, FRET peptide cleavage, 20 min | Potency, µM (doses to about 57.5 µM), for the others: at the top dose activity change, negative = active | actives 1.9% (n = 340,000); active = well fitted falling curve with a large enough effect; inconclusive = small, poorly fitted or top-dose-only effect; inactive = no such curve, though single readings can be large or run the other way; further: potency means the concentration at half of the fitted maximal effect; the source files actives as falling curves though it sought activators and does not explain the sign; nearly all actives have a fitted effect of over 65% in size; many hits overshoot -100%
# Target sequence (P80244 whole entry, looked up): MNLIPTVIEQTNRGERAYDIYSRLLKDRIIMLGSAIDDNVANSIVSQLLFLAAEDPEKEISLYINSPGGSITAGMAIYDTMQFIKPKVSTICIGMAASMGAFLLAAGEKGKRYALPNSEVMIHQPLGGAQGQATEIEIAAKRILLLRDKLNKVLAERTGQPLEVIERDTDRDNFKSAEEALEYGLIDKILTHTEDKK
#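 Purified B. subtilis ClpP, 10 microg/mL final in Tris/HCl pH8 with KCl, BSA, glycerol and Tween-20, cleaved an Abz/nitrotyrosine-quenched decapeptide. Fluorescence (ex 320, em 430) was read at 0 and 20 min at room temperature. Delta was normalized to 5.8 microM ADEP and DMSO/no-enzyme controls.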
# TRPV1 potentiator: enhances activation of the human vanilloid receptor TRPV1. potentiation, % at 8.33 µM. Q8NER1. TRPV1-expressing cells, Fluo-8 calcium influx, capsaicin EC20 potentiation; host cell line not named in the record; control for the full effect not named in the record. AID 540277. actives 0.02% (n = 320,000); active means potentiation above 80%; inconclusive means 30% to 80%; inactive means below 30%; further: 0% is about no effect
#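 Cells expressing TRPV1 were dye-loaded with Fluo-8 and read kinetically: 10 s baseline, 3 min after compound (agonist portion), then 2 min after EC20 capsaicin (allosteric enhancer portion). Calcium-bound dye fluorescence at 480/520 nm.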
# * hit, by the source's call; ? = inconclusive; . = no result given; & = joins results of further samples; [ ] = another dose, or the depositor's remark.
SMILES,Menin MLL FP FL,Sfp PPTase inh,TRPML1 inh,TRPML1 ag,PINK1 modulator,ClpP mod,TRPV1 potentiator
COc1ccc(-c2cc(C(F)(F)F)nc(N3CCOCC3)n2)cc1OC,3.0,-3%,-5,1.3,4.1%,-14%,-7
CCc1nnc(NS(=O)(=O)c2ccc(Nc3ccc4nonc4c3[N+](=O)[O-])cc2)s1,-3.5,27%,-5,-0.6,2.3%,.,1
COc1ccccc1CNC(=O)c1ccc(-c2ccccc2C(F)(F)F)o1,3.1,-16%,1,1.9,?,-21%,-12
O=Cc1cn(CC(=O)N2CCCCCC2)c2ccccc12,6.1,-2%,.,.,2.5%,2.2%,15
CCc1cccc(NC(=O)Cn2c(=O)n(CC(=O)NCCc3ccccc3)c(=O)c3ccccc32)c1,.,.,3,0.0,5.2%,6.1%,.
CN(CCCNC(=O)CCC(=O)N1CCOc2ccccc21)Cc1ccccc1,3.0,10%,-3,-0.4,-0.7%,0.2%,-14
O=C(NCCC1=CCCCC1)c1cc(S(=O)(=O)N2CCOCC2)ccc1F,.,.,7,0.7,1.4%,.,-17
CCN(Cc1ccccc1)C(=O)Cn1c(=O)n(CCC(=O)N2CCCCC2)c(=O)c2sccc21,0.6,17%,-2,-0.9,-1.5%,0.5%,2
O=c1nc(-c2ccccc2)c(-c2ccccc2)n[nH]1,-0.7,11%,7,1.4,0.0%,-1.8%,-6
CC(=O)Nc1cc2ccccc2oc1=O,-3.9,21%&2%,52,1.1,-2.1%,.,29
CCn1cc(Br)c(-c2nc3ccccc3c(=O)n2N)n1,2.2,-3%,-10,-0.7,-3.5%[38.3 µM],-1.7%,10
COc1ccc(CNS(=O)(=O)c2ccc(F)c(C(=O)Nc3c(C)cc(C)cc3C)c2)cc1,.,.,37,3.7,11%,2.0%,.
CCOc1ccc(-c2nnn(CC(=O)NCc3ccc(OC)cc3)n2)cc1OCC,-1.1,2%,3,-0.3,.,9.3%,6
Cc1cc(=O)[nH]c(N/N=C/c2sccc2C)n1,-2.7,13µM*,-23,0.1,1.3%,-1.1%,-4
COc1ccc(-n2c(=S)[nH]c3cc(C(=O)NCc4ccccc4)ccc3c2=O)c(OC)c1,-1.4,30%,19,0.4,2.1%,.,-8
O=C1c2ccccc2S(=O)(=O)c2cc(C(=O)N3CCC(O)CC3)ccc21,.,.,-1,0.0,0.5%,1.3%,.
CCOC(=O)c1c(C)[nH]c(C(=O)OCCOc2ccccc2C)c1C,3.2,14%,-9,3.5,6.6%,0.7%,17
COc1ccccc1-c1nnc(C2CCN(S(=O)(=O)c3ccc([N+](=O)[O-])cc3)CC2)o1,.,-6%,5,-0.2,-0.8%,0.2%,7
Cc1cccc(NS(=O)(=O)c2c(C)[nH]c(C)c2C(=O)N2CCCC2)c1,1.3,11%,3,0.1,0.2%,-0.5%,-14
CC1=C(C#N)c2nc(N)c(C#N)c(C)c2/C1=C\c1ccc(OCC(=O)O)c(Cl)c1,?,?,-3,2.4,-0.9%,.,10
Cc1ccc(NC(=O)c2ccc(C(C)(C)C)cc2)cc1-n1cnnn1,-3.0,5%,8,-0.2,3.6%,.,-1
CC(C)(C)OC(=O)NCc1ccc(CNC(=O)c2nc[nH]c2C(=O)N2CCN(c3ccccc3)CC2)cc1,.,.,3,-1.2,-0.8%,-2.1%,-4
COc1ccc(OCC(O)CN2CCOCC2)cc1 (stereo not drawn),0.2,20%,-3,-0.5,0.5%,3.3%,-9
COc1ccc(/C=C/c2cc(C(F)(F)F)[nH]c(=O)n2)cc1OC,-0.4,17%,7,2.5,-2.7%,.,-8
CCn1c(NCc2ccccn2)nc2ccccc21,2.9,?,-4,-0.1,-0.3%,-0.1%,-4
C/C=C/C(=O)Nc1cccc(C2=NOC3(C2)C[C@H](C(N)=O)N(C(=O)/C=C/C)C3)c1 (stereo partly drawn),6.2,9%,3,-0.3,0.5%,-3.8%,22
COc1cc(NC(=O)Cn2c(C)cc3ccccc3c2=O)cc(OC)c1OC,3.0,12%,-10&-2,-0.2&0.1,0.6%&6.7%,?,7
Cc1cc(C)c(OCC(=O)Nc2cccc(-c3nc4ncccc4o3)c2)c(Br)c1,.,.,41,0.1,2.3%,-16%,.
CN1CCN(C(=O)c2cc3c(s2)-c2ccccc2S(=O)(=O)C3)CC1,5.4,19%,3,-0.3,0.8%,-13%,-14
C#Cc1cccc(Nc2nc(NCCOC)nc3ccsc23)c1,.,.,.,-0.5,1.8%,?,.
CCOC(=O)C1CCCN(C(=O)CCC(=O)Nc2ccc3nc(N4CCOCC4)cc(C)c3c2)C1 (stereo not drawn),1.1,-2%,10,0.0,1.6%,8.9µM*,11
COc1ccc([N+](=O)[O-])cc1NC(=S)NC(NC(=O)C(c1ccccc1)c1ccccc1)C(Cl)(Cl)Cl (stereo not drawn),6.6,9%,-10,2.4,?,-2.2%,-4
Cc1ccc(C(=O)OCC(=O)NCc2cccc(Cl)c2)cc1S(=O)(=O)N1CCCCC1,.,.,-16,1.0,0.7%,-1.0%,17
Cc1ccc(C)c2nc3sc(C(=O)N4CCCc5ccccc54)c(N)c3cc12,?,-4%,0,7.0,14%[38.3 µM],-4.0%,.
COc1ccc(C(O)c2ncc(-c3cccc(OC)c3)[nH]2)cc1 (stereo not drawn),.,.,.,-0.9,1.9%,-4.0%,.
CN(C)C(=O)c1ccc(NC(=O)COC(=O)C2CCN(S(=O)(=O)c3ccc4c(c3)OCCO4)CC2)cc1,.,.,29,0.0,-1.4%,-0.7%,15
O=C(COc1ccccc1)N1CCN=C1SCc1cccc(F)c1,2.4,11%,80,0.7,0.3%,1.6%,29
CC1CC(C)CN(c2ncnc3c2cnn3-c2ccc(Cl)cc2)C1 (stereo not drawn),0.0,-2%,-5,-1.0,5.9%,?,-5
C#CC(C)(CC)NC(=O)Cn1nnc(-c2ccc(OCc3c(F)cccc3Cl)cc2)n1 (stereo not drawn),.,.,-6,0.8,0.2%,-1.6%,.
Oc1ccc(Cl)cc1CNc1ccccn1,-1.0,16%,-1,-0.6,0.8%,.,-10

# An excerpt from above with just Menin MLL FP FL, Sfp PPTase inh and TRPML1 inh.
Molecule,Menin MLL FP FL,Sfp PPTase inh,TRPML1 inh
Cc1cc(C)c(OCC(=O)Nc2cccc(-c3nc4ncccc4o3)c2)c(Br)c1,.,.,41
O=C(COc1ccccc1)N1CCN=C1SCc1cccc(F)c1,2.4,11%,80
CCc1cccc(NC(=O)Cn2c(=O)n(CC(=O)NCCc3ccccc3)c(=O)c3ccccc32)c1,.,.,3
CN(C)C(=O)c1ccc(NC(=O)COC(=O)C2CCN(S(=O)(=O)c3ccc4c(c3)OCCO4)CC2)cc1,.,.,29

# New compounds follow
SMILES,Menin MLL FP FL,Sfp PPTase inh,TRPML1 inh,TRPML1 ag,PINK1 modulator,ClpP mod,TRPV1 potentiator
O=C(Nc1nnc(C2COc3ccccc3O2)o1)c1ccc(F)cc1 (stereo not drawn),-0.4,13%,38,-0.4,0.0%,-3.8%,?
CCCc1nc2oc3cc(OC)ccc3c(=O)c2c(=O)n1Cc1ccco1,14,32µM*,-3,-0.3,0.1%,-3.5%,-12
COc1ccc(Cl)cc1C(=O)NNC(=O)CN1C(=O)C2CC=CCC2C1=O (stereo not drawn),-1.5,11%,18,2.9,0.3%,-0.7%,9
NC(=O)c1ccc(SCC(=O)OCC(=O)NCc2cccs2)c([N+](=O)[O-])c1,.,.,-6,1.1,1.7%,-1.5%,-2
COc1ccc2c(C)cc(SCC(=O)NC3CCCCC3)nc2c1,.,.,-16,-1.3,13%,.,.
Nc1c(-c2cccs2)cnc2c(-c3ccc(F)cc3)cnn12,-3.5,18%,-4,0.2,2.9%,.,12
COc1ccc2cc3c(N)nn(C(=O)c4ccc(OC)c(OC)c4)c3nc2c1,.,.,-3,0.7,6.2%,-5.2%,5
CCOC(=O)c1c(CN(CC)CC)oc2ccc(OC)cc12,2.7,18%,2,2.0,0.3%,-21%,-3
Cc1cc(C(=O)NNC2CC(=O)N(c3ccc4ccccc4c3)C2=O)c(C)o1 (stereo not drawn),-3.0,6%,-10,-0.9,1.7%,-1.4%,3
COc1ccccc1N(CC(=O)NC1CCCCC1)S(=O)(=O)c1ccccc1,-3.6,5%,11,0.7,-1.8%,.,-10
CCN(CC)CCOC(=O)c1ccc(NC(=O)c2nn(-c3ccc(C)cc3)c(=O)c3c2c2ccccc2n3C)cc1,.,.,-22,1.4,0.5%,-8.3%,.
Cc1cc(C)n2nc(-c3cccc(Br)c3)cc2n1,-0.5,2%,1,-0.5,7.5%,.,16
CCc1cc(C(=O)N2CCCC(C(=O)c3cccc4ccccc34)C2)n(C)n1 (stereo not drawn),-2.8,8%,-1,-0.7,1.4%,.,4
CCOc1ccc(N(CC(=O)NC2CCCCC2)C(=O)CCC(=O)Nc2nccs2)cc1,.,9%,38,0.0,3.7%,.,3
Cc1ccc2c(c1)C1CN(C)CCC1N2C(=O)COc1ccc(N(C)S(=O)(=O)c2cccs2)cc1 (stereo not drawn),3.6,-3%,3,0.1,0.7%,.,5
Cc1ccc(CSc2nnc(-c3ccco3)o2)cc1,4.7,-11%,-6,2.8,-1.2%,0.2%,-6
O=C(CSc1nnnn1-c1ccc(Cl)cc1)NC(=O)Nc1ccc2c(c1)OCCO2,6.1,-26%,30,0.1,.,-0.3%,10
CCOC(=O)N1CCN(C(=O)Nc2sc3nc4n(c(=O)c3c2C)CCC(C)CC4)CC1 (stereo not drawn),?,-10%,-12,0.7,.,-5.8%,1
Cc1cc(C(=O)Nc2ccc(N3CCCCC3)cc2)no1,2.8,5%,2,0.2,2.4%,-0.3%,-17
COc1cccc(C2NC(=O)NC(C)=C2C(=O)Nc2ccccc2C)c1 (stereo not drawn),-0.4,-3%,.,.,.,.,-4
COc1ccc(N2CCN(Cc3nc4c(c(=O)n(C)c(=O)n4C)n3CC(C)=O)CC2)cc1,2.5,25%,12,-0.3,7.8%[38.3 µM],0.2%,-5

# Two of these compounds, reformatted.
SMILES | Menin MLL FP FL | Sfp PPTase inh | TRPML1 inh | TRPML1 ag | PINK1 modulator | ClpP mod | TRPV1 potentiator
NC(=O)c1ccc(SCC(=O)OCC(=O)NCc2cccs2)c([N+](=O)[O-])c1 | . | . | -6 | 1.1 | 1.7% | -1.5% | -2
COc1ccc2c(C)cc(SCC(=O)NC3CCCCC3)nc2c1 | . | . | -16 | -1.3 | 13% | . | .
